Assay outcomes (PubChem)
Yeast UUG start: alters start codon recognition fidelity in yeast; S. cerevisiae UUG-firefly luciferase reporter, luminescence/redox ratio; activity score, % at 18.7 µM; hit rate 0.13% among 350,000; AID 602363;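 active = replicate mean at a twofold rise or more, about +100% in these data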;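 note: firefly luciferase made from a UUG start codon reports start codon fidelity; reporter light over untreated wells divided by growth signal over untreated wells; some hits fall short of that in this replicate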
Env fusion inh: blocks HIV Env-driven cell-cell fusion; HeLa-JRFL Env/CEM21 cell fusion, luciferase; inhibition, % at 12.3 µM; hit rate 1.1% among 360,000; AID 651610;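 active = mean replicate inhibition score of at least 50 and every replicate individually at or above 50; inconclusive = only one of the two criteria met; inactive = mean below 50 and not all replicates reaching 50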;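 note: 0% = plate neutral controls and 100% = maraviroc near 300 nM; one replicate is shown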
* = called active by the depositor; & = joins results of further samples; [ ] = dose if it differs, or a comment. A portion of the library (hit frequency here may not be typical).

Results for Cc1ccc(S(=O)(=O)Nc2ccc3c(c2)CC(=O)N([C@@H](C)CO)C[C@H](C)[C@@H](CN(C)S(=O)(=O)c2ccc(F)cc2)O3)cc1 ?
Yeast UUG start: 45; Env fusion inh: -41[16.7 µM]

What do the screens show for `C[C@@H]1CN([C@@H](C)CO)C(=O)c2cc(NC(=O)Cn3cnnn3)ccc2O[C@@H]1CN(C)C(=O)Nc1ccccc1`?
Yeast UUG start: 0; Env fusion inh: 9[16.7 µM]

What do the screens show for `CCNC(=O)C[C@H]1CC[C@@H]2[C@H](COc3ccc(NC(=O)Nc4ccc(F)cc4)cc3C(=O)N2C)O1`?
Yeast UUG start: -4; Env fusion inh: 14[16.7 µM]

What do the screens show for `CN(C)C(=O)C[C@H]1C[C@H]2c3cc(NS(=O)(=O)c4ccc(F)cc4)ccc3O[C@H]2[C@@H](CO)O1`?
Yeast UUG start: 23; Env fusion inh: -21[16.7 µM]

Results for O=C(C[C@@H]1C[C@@H]2c3cc(NC(=O)NC4CCCC4)ccc3O[C@@H]2[C@H](CO)O1)NCCN1CCCCC1 ?
Yeast UUG start: -10; Env fusion inh: -10[16.7 µM]

Results for C[C@@H]1CN([C@H](C)CO)C(=O)c2cccc(NC(=O)c3nc4ccccc4s3)c2O[C@H]1CN(C)S(=O)(=O)c1ccc(F)cc1 ?
Yeast UUG start: -3; Env fusion inh: -52[16.7 µM]

How did COc1ccc(NC(=O)Nc2ccc3c(c2)C(=O)N([C@H](C)CO)C[C@H](C)[C@H](CN(C)C(=O)C2CCCCC2)OCCCC[C@@H](C)O3)cc1 do in these assays?
Yeast UUG start: -8; Env fusion inh: 17[16.7 µM]

What do the screens show for `CCCNC(=O)N(C)C[C@@H]1Oc2cc(C#C[C@@H](C)O)ccc2S(=O)(=O)N([C@@H](C)CO)C[C@@H]1C`?
Yeast UUG start: -2; Env fusion inh: 2[16.7 µM]

How did COc1ccc(C#Cc2ccc3c(c2)O[C@@H](CN(C)C(C)=O)[C@@H](C)CN([C@H](C)CO)S3(=O)=O)cc1 do in these assays?
Yeast UUG start: 19; Env fusion inh: 15[16.7 µM]

What do the screens show for `Cc1cc(C(=O)Nc2cccc3c2O[C@@H](CN(C)Cc2ccc(C(F)(F)F)cc2)[C@@H](C)CN([C@H](C)CO)C3=O)n(C)n1`?
Yeast UUG start: 2; Env fusion inh: 9[16.7 µM]

How did CCCNC(=O)C[C@H]1C[C@@H]2c3cc(NC(=O)CN(C)C)ccc3O[C@@H]2[C@H](CO)O1 do in these assays?
Yeast UUG start: -14; Env fusion inh: 24[16.7 µM]

What do the screens show for `C[C@H](CO)N1C[C@H](C)[C@@H](CN(C)S(=O)(=O)c2ccc(F)cc2)Oc2ccc(NC(=O)CCC(F)(F)F)cc2CC1=O`?
Yeast UUG start: 9; Env fusion inh: 20[16.7 µM]

How did C[C@H]1CN([C@@H](C)CO)S(=O)(=O)c2ccc(C#Cc3ccccn3)cc2O[C@H]1CN(C)Cc1cccc(F)c1 do in these assays?
Yeast UUG start: 9; Env fusion inh: -11[16.7 µM]

Results for CS(=O)(=O)N1[C@H](C#N)[C@H](c2ccc(C#CC3CC3)cc2)[C@H]1CO ?
Yeast UUG start: -3; Env fusion inh: -2[16.7 µM]

What do the screens show for `COc1ccc(NC(=O)Nc2ccc3c(c2)C(=O)N([C@H](C)CO)C[C@@H](C)[C@@H](CN(C)Cc2ccc(C(F)(F)F)cc2)OCCCC[C@@H](C)O3)cc1`?
Yeast UUG start: -8; Env fusion inh: inconclusive

What do the screens show for `C[C@H]1CN([C@@H](C)CO)C(=O)c2cccc(NC(=O)Nc3ccc4c(c3)OCO4)c2O[C@H]1CN(C)S(C)(=O)=O`?
Yeast UUG start: 1; Env fusion inh: -5[16.7 µM]

What do the screens show for `CCc1cnc(N2[C@H](C#N)[C@@H](c3ccc(C#Cc4ccccc4F)cc3)[C@@H]2CO)s1`?
Yeast UUG start: -26; Env fusion inh: 7[16.7 µM]

How did CC(C)C#Cc1cnc2c(c1)C(=O)N([C@@H](C)CO)C[C@H](C)[C@@H](CN(C)S(=O)(=O)c1cn(C)cn1)O2 do in these assays?
Yeast UUG start: 0; Env fusion inh: -48[16.7 µM]

Results for Cc1cc(C)cc(NC(=O)Nc2ccc3c(c2)C(=O)N(C)[C@@H]2CC[C@@H](CC(=O)O)O[C@H]2CO3)c1 ?
Yeast UUG start: 2; Env fusion inh: 9[16.7 µM]

Results for CCC(=O)Nc1ccc2c(c1)C(=O)N(C)[C@H]1CC[C@@H](CC(=O)NCCc3ccccc3)O[C@H]1CO2 ?
Yeast UUG start: -1; Env fusion inh: 24[16.7 µM]

What do the screens show for `C[C@@H]1CCCCO[C@@H](CN(C)C(=O)NC2CCCCC2)[C@H](C)CN([C@@H](C)CO)C(=O)c2cc(NC(=O)Nc3ccc(F)cc3)ccc2O1`?
Yeast UUG start: 3; Env fusion inh: 8[16.7 µM]

Results for O=C(N[C@@H]1CC[C@H](CCNS(=O)(=O)c2ccc(F)cc2)O[C@@H]1CO)c1cnccn1 ?
Yeast UUG start: -1; Env fusion inh: 2[16.7 µM]

What do the screens show for `C[C@@H]1CN([C@@H](C)CO)C(=O)c2cc(NS(C)(=O)=O)ccc2O[C@@H](C)CCCCO[C@H]1CN(C)C(=O)CCCN(C)C`?
Yeast UUG start: 16; Env fusion inh: 1[16.7 µM]

Results for C[C@@H]1CN([C@H](C)CO)C(=O)Cc2cc(NS(=O)(=O)c3cccs3)ccc2O[C@@H]1CN(C)C(=O)Nc1ccccc1 ?
Yeast UUG start: -4; Env fusion inh: -9[16.7 µM]

What do the screens show for `COCC(=O)N(C)C[C@@H]1Oc2cc(-c3cccnc3)ccc2S(=O)(=O)N([C@H](C)CO)C[C@H]1C`?
Yeast UUG start: -2; Env fusion inh: -6[16.7 µM]

How did Cc1noc(C)c1S(=O)(=O)N(C)C[C@H]1OCCCC[C@H](C)Oc2ccc(NC(=O)Nc3cccc4ccccc34)cc2C(=O)N([C@H](C)CO)C[C@@H]1C do in these assays?
Yeast UUG start: -17; Env fusion inh: 22[16.7 µM]

How did C[C@H]1CCCCO[C@H](CN(C)C(=O)Nc2cccc3ccccc23)[C@@H](C)CN([C@@H](C)CO)C(=O)c2cc(N(C)C)ccc2O1 do in these assays?
Yeast UUG start: 75; Env fusion inh: 28[16.7 µM]

What do the screens show for `COCC(=O)Nc1ccc2c(c1)C(=O)N(C)[C@H]1CC[C@H](CC(=O)Nc3ccccc3OC)O[C@@H]1CO2`?
Yeast UUG start: 11; Env fusion inh: -2[16.7 µM]

Results for C[C@H](CO)N1C[C@H](C)[C@H](CN(C)C(=O)NC2CCCC2)Oc2ncc(-c3ccc(F)cc3)cc2C1=O ?
Yeast UUG start: 9&6; Env fusion inh: -24[16.7 µM]

Results for O=C(Nc1ccc(F)cc1)N[C@H]1C=C[C@@H](CC(=O)N2CCCCC2)O[C@@H]1CO ?
Yeast UUG start: 3; Env fusion inh: -14[16.7 µM]

Results for CC(C)C#Cc1ccc2c(c1)O[C@H](CN(C)C(=O)CN(C)C)[C@H](C)CN([C@H](C)CO)S2(=O)=O ?
Yeast UUG start: 30; Env fusion inh: 15[16.7 µM]

How did O=C(CCN1CCCCC1)NCC[C@@H]1CC[C@H](NC(=O)C2CCC2)[C@@H](CO)O1 do in these assays?
Yeast UUG start: -18; Env fusion inh: -14[16.7 µM]

What do the screens show for `COc1ccc(CN(C)C[C@H]2Oc3ccc(NC(=O)CCC(F)(F)F)cc3CC(=O)N([C@@H](C)CO)C[C@@H]2C)cc1`?
Yeast UUG start: -12; Env fusion inh: -9[16.7 µM]

How did CCC(=O)N(C)C[C@H]1Oc2cc(-c3cccc(F)c3)ccc2S(=O)(=O)N([C@H](C)CO)C[C@@H]1C do in these assays?
Yeast UUG start: -13; Env fusion inh: 12[16.7 µM]

How did COCC#Cc1ccc2c(c1)O[C@H](CN(C)C(=O)Nc1ccccc1F)[C@@H](C)CN([C@@H](C)CO)S2(=O)=O do in these assays?
Yeast UUG start: 35; Env fusion inh: -10[16.7 µM]

Results for CC(C)NC(=O)Nc1ccc2c(c1)C(=O)N([C@@H](C)CO)C[C@H](C)[C@H](CN(C)S(=O)(=O)c1cccs1)O2 ?
Yeast UUG start: 7; Env fusion inh: -7[16.7 µM]

Results for COc1ccc(S(=O)(=O)Nc2ccc3c(c2)C(=O)N([C@H](C)CO)C[C@H](C)[C@H](CN(C)C(=O)Cc2ccccc2)OCCCC[C@H](C)O3)cc1 ?
Yeast UUG start: 0; Env fusion inh: -22[16.7 µM]

How did COc1ccc(CN(C)C[C@@H]2Oc3ccc(NC(=O)Nc4ccc(C(F)(F)F)cc4)cc3C(=O)N([C@@H](C)CO)C[C@H]2C)cc1 do in these assays?
Yeast UUG start: 15; Env fusion inh: 0[16.7 µM]

How did C[C@@H]1CN([C@H](C)CO)S(=O)(=O)c2ccc(C#Cc3ccc(F)cc3)cc2O[C@@H]1CN(C)S(=O)(=O)c1ccc(F)cc1 do in these assays?
Yeast UUG start: -26; Env fusion inh: 28[16.7 µM]

Results for C[C@H](CO)N1C[C@H](C)[C@H](CN(C)C(=O)CN(C)C)Oc2cc(Br)ccc2S1(=O)=O ?
Yeast UUG start: 6; Env fusion inh: -15[16.7 µM]

How did C[C@@H]1CCCCO[C@@H](CN(C)Cc2ccccc2)[C@@H](C)CN([C@@H](C)CO)C(=O)c2cc(NS(=O)(=O)c3cn(C)cn3)ccc2O1 do in these assays?
Yeast UUG start: -7; Env fusion inh: -7[16.7 µM]

Results for CCC(=O)N(C)C[C@@H]1Oc2cc(-c3ccc(OC)cc3)ccc2S(=O)(=O)N([C@H](C)CO)C[C@H]1C ?
Yeast UUG start: 13; Env fusion inh: 6[16.7 µM]

What do the screens show for `COc1ccc(S(=O)(=O)Nc2ccc3c(c2)C(=O)N([C@@H](C)CO)C[C@H](C)[C@H](CN(C)S(=O)(=O)c2ccc(OC)cc2)OCCCC[C@H](C)O3)cc1`?
Yeast UUG start: -5; Env fusion inh: 22[16.7 µM]

How did CCC(=O)N1C[C@@H](C)[C@H](OC)CN(C)C(=O)c2ccc(NC(=O)C3CCCCC3)cc2OC[C@H]1C do in these assays?
Yeast UUG start: -8; Env fusion inh: -13[16.7 µM]

How did O=C(C[C@H]1C[C@@H]2c3cc(NS(=O)(=O)c4ccc(F)cc4)ccc3O[C@@H]2[C@@H](CO)O1)NCc1ccc(-c2ccccc2)cc1 do in these assays?
Yeast UUG start: -13; Env fusion inh: 71*[16.7 µM]

What do the screens show for `C[C@@H]1CCCCO[C@H](CN(C)S(=O)(=O)c2cccs2)[C@H](C)CN([C@@H](C)CO)C(=O)c2cc(NS(=O)(=O)c3ccc(F)cc3)ccc2O1`?
Yeast UUG start: -8; Env fusion inh: -44[16.7 µM]

What do the screens show for `COc1ccc(S(=O)(=O)N(C)C[C@H]2OCCCC[C@H](C)Oc3ccc(NS(=O)(=O)c4c(C)noc4C)cc3C(=O)N([C@H](C)CO)C[C@H]2C)cc1`?
Yeast UUG start: 11; Env fusion inh: -37[16.7 µM]

What do the screens show for `C[C@H]1CN([C@@H](C)CO)C(=O)Cc2cc(NC(=O)C3CCCCC3)ccc2O[C@@H]1CN(C)C(=O)Nc1ccc(C(F)(F)F)cc1`?
Yeast UUG start: 2; Env fusion inh: -43[16.7 µM]

Results for Cc1cc(C(=O)Nc2cccc3c2O[C@H](CN(C)Cc2ccccc2)[C@H](C)CN([C@@H](C)CO)C3=O)n(C)n1 ?
Yeast UUG start: 2; Env fusion inh: 2[16.7 µM]

How did Cc1ccc(S(=O)(=O)Nc2ccc3c(c2)CC(=O)N([C@H](C)CO)C[C@@H](C)[C@H](CN(C)Cc2ccc(C(=O)Nc4ccccc4N)cc2)O3)cc1 do in these assays?
Yeast UUG start: 3; Env fusion inh: 13[16.7 µM]

Results for CCCC#Cc1ccc2c(c1)O[C@H](CN(C)C(=O)c1cnccn1)[C@H](C)CN([C@H](C)CO)S2(=O)=O ?
Yeast UUG start: -1; Env fusion inh: -4[16.7 µM]

Results for CNC[C@@H]1Oc2cc(-c3cccc(F)c3)ccc2S(=O)(=O)N([C@@H](C)CO)C[C@H]1C ?
Yeast UUG start: -1; Env fusion inh: 4[16.7 µM]

How did C[C@H]1CN([C@@H](C)CO)S(=O)(=O)c2ccc(C#CCN(C)C)cc2O[C@H]1CN(C)C(=O)C1CC1 do in these assays?
Yeast UUG start: -10; Env fusion inh: -2[16.7 µM]
